FGF22 binding: shifts melting point of recombinant human FGF22; Q9HCT0; recombinant FGF22 thermal shift, SYPRO orange fluorescence; percent of sucrose octasulfate shift, DMSO zero; calls only at 9.99 µM; 1.5% of 340,000 active; AID 651658;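 active means melting point raised past a set limit in the mean and every replicate; three in four hits are not shown here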
Target sequence (Q9HCT0 whole entry, looked up): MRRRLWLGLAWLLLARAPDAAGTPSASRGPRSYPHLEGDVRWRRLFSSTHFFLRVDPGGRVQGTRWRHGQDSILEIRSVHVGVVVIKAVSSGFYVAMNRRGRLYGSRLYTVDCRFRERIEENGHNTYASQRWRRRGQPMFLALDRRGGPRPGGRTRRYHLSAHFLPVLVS
Calls only; i = inactive.

SMILES	FGF22 binding
CCCNC(=O)c1cc2c(c(-c3cccc(-c4ccc(F)cc4)c3)n1)[C@H](CCO)N([S@@](=O)C(C)(C)C)C2	i
CCCC#Cc1cnc2c(c1)C(=O)N([C@H](C)CO)C[C@H](C)[C@@H](CN(C)C(=O)c1ccccc1)O2	i
O=C(C[C@H]1CC[C@@H](NC(=O)c2cccnc2)[C@H](CO)O1)NCCN1CCCCC1	i
COc1cccc(CNC(=O)C[C@H]2CC[C@@H](NS(=O)(=O)c3ccccc3OC)[C@H](CO)O2)c1	i
C=CC[C@@H](OC(=O)Nc1ccc(SC)cc1)c1ccc(OCCO)cc1	i
C[C@H]1CCCCO[C@@H](CN(C)CC2CCCCC2)[C@@H](C)CN([C@@H](C)CO)C(=O)c2cc(NS(=O)(=O)c3ccc(F)cc3)ccc2O1	i
CN(C[C@H]1[C@H](c2ccccc2)[C@@H](CO)N1CC1CC1)C(=O)c1ccccc1	i
O=C(NCc1ccc(F)cc1)[C@@H]1C[C@@H]2C(=O)N3CCC[C@H]3C(=O)N2[C@@H]1c1cccc(OCCO)c1	i
Cc1ccc(-c2ccc3c(c2)O[C@H](CN(C)C(=O)C2CCC2)[C@H](C)CN([C@H](C)CO)S3(=O)=O)cc1	i
C[C@@H]1CN([C@@H](C)CO)C(=O)Cc2cc(NC(=O)Nc3cccc4ccccc34)ccc2O[C@H]1CN(C)S(=O)(=O)c1ccc(Cl)cc1	i
C[C@H]1CN([C@@H](C)CO)C(=O)Cc2cc(NC(=O)Nc3ccc(F)cc3)ccc2O[C@@H]1CN(C)C(=O)Nc1ccc(F)cc1	i
C[C@@H]1CN([C@@H](C)CO)S(=O)(=O)c2ccc(-c3cncnc3)cc2O[C@@H]1CN(C)C	i
CCC(=O)N(C)C[C@H]1Oc2ncc(C#CCC3CCCC3)cc2C(=O)N([C@H](C)CO)C[C@@H]1C	i
COC(=O)C[C@@H]1CC[C@@H]2[C@H](COc3ccc(NC(=O)Nc4ccc(C#N)cc4)cc3C(=O)N2C)O1	i
Cc1ccc(-c2cnc3c(c2)C(=O)N([C@@H](C)CO)C[C@H](C)[C@@H](CN(C)C(=O)CN(C)C)O3)cc1	i
CN(C)C(=O)C[C@H]1C[C@@H]2c3cc(NC(=O)Nc4ccc(F)cc4)ccc3O[C@@H]2[C@@H](CO)O1	i
Cc1ccc(N2C(=O)c3ccccc3[C@](C)(C(=O)O)[C@@H]2c2ccc(CO)cc2)nc1	i
C[C@@H]1CN([C@@H](C)CO)C(=O)c2cc(NC(=O)CCC(F)(F)F)ccc2O[C@@H](C)CCCCO[C@H]1CN(C)Cc1ccc(Cl)c(Cl)c1	i
COc1cccc(NC(=O)C[C@H]2CC[C@@H]3[C@@H](COc4ccc(NC(C)=O)cc4C(=O)N3C)O2)c1	i
C[C@@H]1CN([C@@H](C)CO)C(=O)Cc2cc(NC(=O)Nc3cccc4ccccc34)ccc2O[C@@H]1CN(C)Cc1ccc2c(c1)OCO2	i
CCCNC(=O)Nc1ccc2c(c1)C(=O)N(C)C[C@@H](OC)[C@@H](C)CN(Cc1ccc(-c3ccccn3)cc1)[C@@H](C)CO2	i
C[C@H](CO)N1C[C@H](C)[C@H](CN(C)S(C)(=O)=O)OCCCC[C@H](C)Oc2ccc(N(C)C)cc2C1=O	i
C[C@H](CO)N1C[C@H](C)[C@@H](CN(C)C(=O)c2cccc(F)c2)Oc2ncc(-c3cccc(F)c3)cc2C1=O	i
COc1cccc(CN2[C@@H](CO)[C@H](c3ccccc3)C23CN(C(=O)C2CCOCC2)C3)c1	i

Compounds shown so far containing fluorine (seven):
SMILES	FGF22 binding
CCCNC(=O)c1cc2c(c(-c3cccc(-c4ccc(F)cc4)c3)n1)[C@H](CCO)N([S@@](=O)C(C)(C)C)C2	i
C[C@H]1CCCCO[C@@H](CN(C)CC2CCCCC2)[C@@H](C)CN([C@@H](C)CO)C(=O)c2cc(NS(=O)(=O)c3ccc(F)cc3)ccc2O1	i
O=C(NCc1ccc(F)cc1)[C@@H]1C[C@@H]2C(=O)N3CCC[C@H]3C(=O)N2[C@@H]1c1cccc(OCCO)c1	i
C[C@H]1CN([C@@H](C)CO)C(=O)Cc2cc(NC(=O)Nc3ccc(F)cc3)ccc2O[C@@H]1CN(C)C(=O)Nc1ccc(F)cc1	i
CN(C)C(=O)C[C@H]1C[C@@H]2c3cc(NC(=O)Nc4ccc(F)cc4)ccc3O[C@@H]2[C@@H](CO)O1	i
C[C@@H]1CN([C@@H](C)CO)C(=O)c2cc(NC(=O)CCC(F)(F)F)ccc2O[C@@H](C)CCCCO[C@H]1CN(C)Cc1ccc(Cl)c(Cl)c1	i
C[C@H](CO)N1C[C@H](C)[C@@H](CN(C)C(=O)c2cccc(F)c2)Oc2ncc(-c3cccc(F)c3)cc2C1=O	i

New compounds follow:
SMILES	FGF22 binding
COCCNC(=O)C[C@H]1CC[C@H]2[C@@H](COC[C@@H](O)CN2S(=O)(=O)c2ccccc2F)O1	i
O=C(N[C@H]1C=C[C@@H](CC(=O)N2CCc3ccccc3C2)O[C@H]1CO)C1CC1	i
COc1cccc(-c2ccc([C@@H]3[C@H]4CN(CC5CC5)CCCCN4[C@H]3CO)cc2)c1	i
C[C@@H]1CN([C@H](C)CO)S(=O)(=O)c2ccc(C#C[C@@H](C)O)cc2O[C@@H]1CN(C)C(=O)Nc1ccccc1	i
CN1OC[C@@H]2CN[C@H](c3ccc(-n4ccnc4)cc3)C[C@@H]21	i
O=C(C1CCCCC1)N1CC2(C1)[C@H](c1ccccc1)[C@H](CO)N2C(=O)c1cccnc1	i
COc1cccc(NC(=O)N(C)C[C@@H]2Oc3cc(-c4cccc(C(=O)N(C)C)c4)ccc3S(=O)(=O)N([C@H](C)CO)C[C@H]2C)c1	i
C[C@H]1CCCCO[C@H](CN(C)Cc2ccc3c(c2)OCO3)[C@@H](C)CN([C@@H](C)CO)C(=O)c2cc(NS(=O)(=O)c3cccs3)ccc2O1	i
CO[C@@H]1CN(C)C(=O)c2cc(NC(=O)c3nc4ccccc4s3)ccc2OC[C@H](C)N(Cc2cncnc2)C[C@H]1C	i
CCC(=O)N1C[C@@H](O)COC[C@H]2O[C@H](CC(=O)N3CCCCC3)CC[C@@H]21	i
C[C@H](CO)N1C[C@H](C)[C@H](CN(C)Cc2ccccc2)Oc2ccc(NC(=O)Cc3cn(C)c4ccccc34)cc2C1=O	i
C[C@H]1CN([C@@H](C)CO)C(=O)c2cccc(NS(=O)(=O)c3ccccc3)c2O[C@@H]1CN(C)S(=O)(=O)c1ccccc1	i
C[C@H](CO)N1C[C@H](C)[C@@H](CN(C)Cc2ccc(-c3ccccc3)cc2)Oc2c(NC(=O)c3cnccn3)cccc2C1=O	i
CC(C)NC(=O)N(C)C[C@H]1Oc2c(NC(=O)Nc3cccc4ccccc34)cccc2C(=O)N([C@H](C)CO)C[C@@H]1C	i
CCCNC(=O)N1CC2(CCN(S(C)(=O)=O)CC2)c2c(n(C)c3cc(OC)ccc23)[C@H]1CO	i
CNC(=O)C[C@H]1CC[C@H]2[C@H](COc3ccc(NC(=O)c4ccc(OC)cc4)cc3C(=O)N2C)O1	i
CCCN1C(=O)c2[nH]nc(-c3ccccc3)c2C1c1ccc(F)cc1 (stereo not drawn)	i
CC(C)C#Cc1ccc([C@@H]2[C@@H](C#N)N(C(=O)C3CCOCC3)[C@H]2CO)cc1	i
C[C@H]1CN([C@@H](C)CO)S(=O)(=O)c2ccc(-c3cccc(C#N)c3)cc2O[C@H]1CN(C)C(=O)c1ccncc1	i
C[C@H]1CN([C@@H](C)CO)C(=O)c2cc(NS(=O)(=O)c3ccccc3)ccc2O[C@H]1CN(C)C(=O)Nc1ccccc1	i
O=C(c1ccc(F)cc1)N1CC(=O)N2[C@H](CO)[C@@H](c3ccc(C#CCC4CCCC4)cc3)[C@H]2C1	i
Cc1cc(C(=O)Nc2cccc3c2O[C@@H](CN(C)C(=O)Nc2ccc4c(c2)OCO4)[C@@H](C)CN([C@@H](C)CO)C3=O)n(C)n1	i
CO[C@@H]1CN(C)C(=O)c2cc(NC(=O)NC3CCCCC3)ccc2OC[C@H](C)N(CC2CC2)C[C@@H]1C	i
COC(=O)[C@]12C[C@H](CC(=O)NCCCN3CCCC3=O)C(=O)N(Cc3ccccc3)C1=C[C@H](C(C)C)O[C@@H]2C1CC1	i
COc1cccc(NC(=O)N2C[C@H](O)COC[C@@H]3O[C@H](CC(=O)NC4CCCC4)CC[C@H]32)c1	i
C[C@H]1CN([C@@H](C)CO)C(=O)Cc2cc(NC(=O)CCN3CCOCC3)ccc2O[C@H]1CN(C)S(=O)(=O)c1ccccc1	i
COc1ccccc1-c1cnc2c(c1)C(=O)N([C@H](C)CO)C[C@@H](C)[C@@H](CN(C)CC1CCCC1)O2	i
O=C(C[C@@H]1C=C[C@@H](NC(=O)CN2CCOCC2)[C@@H](CO)O1)NCCc1ccccc1	i
C[C@@H]1CN([C@H](C)CO)C(=O)c2cc(NC(=O)Nc3cccc4ccccc34)ccc2O[C@H]1CN(C)C(=O)Nc1ccccc1	i
O=S(=O)(NC[C@@H]1[C@@H](c2ccccc2)[C@H](CO)N1CC1CC1)c1ccccc1	i
CC(C)CC#Cc1cnc2c(c1)C(=O)N([C@H](C)CO)C[C@H](C)[C@H](CN(C)Cc1ccccn1)O2	i
O=C(Nc1nc2ccccc2s1)c1ccc2c(c1)S(=O)(=O)c1ccccc1C2=O	i
O=C([C@@H]1[C@@H](CO)[C@@H]2Cn3c(ccc(-c4ccncc4)c3=O)[C@@H]2N1CCC(F)(F)F)N1CCCCC1	i
CN(C)Cc1cn(CC[C@@H]2CC[C@H](NC(=O)Cc3cccnc3)[C@@H](CO)O2)nn1	i
CCC(=O)N(C)C[C@@H]1Oc2ncc(-c3ccc(F)cc3)cc2C(=O)N([C@H](C)CO)C[C@H]1C	i
C[C@H](CO)N1C[C@H](C)[C@H](CN(C)Cc2ccc(C(F)(F)F)cc2)Oc2ccc(NC(=O)Nc3ccc4c(c3)OCO4)cc2CC1=O	i
CO[C@H](CN(C)C(=O)c1ccccc1F)[C@H](C)CN([C@H](C)CO)S(=O)(=O)c1ccc(C)cc1	i
COCCNC(=O)C[C@@H]1CC[C@H]2[C@H](COc3ccc(NC(=O)Cc4ccccc4)cc3C(=O)N2C)O1	i
COCCNC(=O)C[C@@H]1C[C@@H]2c3cc(NC(=O)Nc4ccccc4)ccc3O[C@@H]2[C@@H](CO)O1	i
CO[C@@H]1CN(C)C(=O)c2cc(NC(=O)CC(F)(F)F)ccc2OC[C@@H](C)N(C(=O)C2CCOCC2)C[C@@H]1C	i
COC(=O)C[C@@H]1CC[C@@H]2[C@H](COc3ccc(NC(=O)Nc4cc(C)cc(C)c4)cc3C(=O)N2C)O1	i
O=C(C[C@@H]1C[C@H]2c3cc(NS(=O)(=O)c4ccc(F)cc4)ccc3O[C@H]2[C@@H](CO)O1)NCc1ccccc1	i
CO[C@H]1CN(C)C(=O)c2ccc(NC(=O)C3CCCCC3)cc2OC[C@H](C)N(C(=O)c2ccccc2)C[C@@H]1C	i
O=C(Nc1ccc(F)cc1)N1CCCCN2[C@H](CO)[C@@H](c3ccc(C#Cc4ccccc4)cc3)[C@@H]2C1	i
CC(C)CC#Cc1cnc2c(c1)C(=O)N([C@H](C)CO)C[C@@H](C)[C@H](CN(C)S(=O)(=O)c1cccs1)O2	i
O=C(CN1CCOCC1)NCC[C@H]1CC[C@@H](NC(=O)Nc2ccccc2)[C@@H](CO)O1	i
COc1ccc(NC(=O)N(C)C[C@H]2Oc3ccc(NC(=O)NC(C)C)cc3C(=O)N([C@H](C)CO)C[C@H]2C)cc1	i
Cc1ccccc1-c1ccc([C@@H]2[C@H]3CN(C(=O)Nc4ccc(F)cc4)CCCCN3[C@H]2CO)cc1	i

Filtered by structure, the entries above containing a Cl atom (2)
SMILES	FGF22 binding
C[C@@H]1CN([C@@H](C)CO)C(=O)Cc2cc(NC(=O)Nc3cccc4ccccc34)ccc2O[C@H]1CN(C)S(=O)(=O)c1ccc(Cl)cc1	i
C[C@@H]1CN([C@@H](C)CO)C(=O)c2cc(NC(=O)CCC(F)(F)F)ccc2O[C@@H](C)CCCCO[C@H]1CN(C)Cc1ccc(Cl)c(Cl)c1	i

Later entries:
SMILES	FGF22 binding
C[C@@H]1CCCCO[C@@H](CN(C)CC2CCCCC2)[C@H](C)CN([C@H](C)CO)C(=O)c2cc(NC(=O)c3ccccc3)ccc2O1	i
Cc1ccc(-c2ccc3c(c2)O[C@H](CN(C)C(=O)CN(C)C)[C@H](C)CN([C@H](C)CO)S3(=O)=O)cc1	i
C[C@@H]1CN([C@@H](C)CO)C(=O)c2cc(NC(=O)Cc3cn(C)c4ccccc34)ccc2O[C@H]1CN(C)C(=O)Nc1ccc(C(F)(F)F)cc1	i
C[C@@H]1CN([C@H](C)CO)C(=O)c2cccc(NS(=O)(=O)c3cccs3)c2O[C@H]1CN(C)CC1CC1	i
CCC(=O)Nc1ccc2c(c1)C(=O)N(C)C[C@H](OC)[C@@H](C)CN(C(=O)CC1CC1)[C@@H](C)CO2	i
C[C@@H]1CCCCO[C@H](CN(C)C(=O)c2ccncc2)[C@H](C)CN([C@@H](C)CO)C(=O)c2cc(NC(=O)Cc3ccccc3)ccc2O1	i
O=C(CC(F)(F)F)N1C[C@@H]2[C@H](c3ccccc31)[C@@H](CO)N2C(=O)C1CC1	i
C[C@@H]1CCCCO[C@H](CN(C)Cc2ccncc2)[C@H](C)CN([C@@H](C)CO)C(=O)c2cc(NS(=O)(=O)c3cccs3)ccc2O1	i
CCCC#Cc1ccc2c(c1)O[C@H](CN(C)C(=O)c1ccccc1F)[C@@H](C)CN([C@H](C)CO)S2(=O)=O	i
CCCC#Cc1cnc2c(c1)C(=O)N([C@H](C)CO)C[C@@H](C)[C@@H](CN(C)C(=O)CCN1CCCCC1)O2	i
C[C@@H]1CN([C@H](C)CO)S(=O)(=O)c2ccc(-c3cccc(C#N)c3)cc2O[C@@H]1CN(C)C(=O)c1ccccc1	i
C[C@H]1CN([C@@H](C)CO)C(=O)c2cccc(NC(=O)c3ccc(-c4nccs4)cc3)c2O[C@@H]1CN(C)CC1CCCCC1	i
C/C=C/c1ccc([C@@H]2[C@H](CO)N(C(=O)CC)C23CN(S(C)(=O)=O)C3)cc1	i
C[C@H](CO)N1C[C@H](C)[C@@H](CN(C)Cc2ccc(-c3ccccc3)cc2)Oc2ccc(NC(=O)C3CC3)cc2C1=O	i

Source: PubChem BioAssay (Broad Institute)

Not all compounds are listed (hit frequency here may not be typical).
